Bioassay records (PubChem)
MT1-MMP act inh = blockers of MT1-MMP proenzyme processing, primary screen, HT1080 RFP-PRO-GFP cells, GFP/RFP fluorescence. Matrix metalloproteinase-14 (Homo sapiens), P50281. GFP/RFP ratio fluorescence, overnight; percent of plate control window, DMSO zero. GFP/RFP ratio change, % at 20 µM. 360,000 tested, 0.061% active. AID 651647, 2012;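 active means GFP/RFP ratio change of at least 30% with cell ATP level not reduced by more than half and red fluorescence within 50% of control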; further: strong numbers were not always called active
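Assay system: RFP-PRO-GFP reporter HT1080 cells; read-out basis: GFP/RFP fluorescence ratio; benchmarks: DMSO wells and RFP-L50D-GFP cells; doses: 20 µM single dose, 1% DMSO; schedule: overnight cell settling, then overnight compound exposure, 37 °C, 5% CO2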
eIF4H FP inh = human eIF4H binding inhibitors, primary screen, translation initiation inhibitor project, biochemical, uHTS, fluorescence polarization. Eukaryotic translation initiation factor 4H (Homo sapiens), Q15056. eIF4H fluorescence polarization binding assay. inhibition, % at 35 µM. 290,000 tested, 0.94% active. AID 2012, 2009;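 active means 50% or more with normal probe brightness, or confirmed in later tests; about a fifth of its hits are not listed in these tables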;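 further: calls also rest on retests at 20 µM and on dose response follow-up; 0% = protein and probe with vehicle and 100% = probe without protein; strong numbers were not always called active; many hits fall short of the cut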
Rce1 inh = yeast Rce1p protease inhibitors, primary screen, biochemical, fluorescence, cell-free homogeneous; CAAX prenyl protease 2 (Saccharomyces cerevisiae (strain ATCC 204508 / S288c)), Q03530; yeast membranes, quenched prenylated peptide cleavage fluorescence; calls only; 290,000 tested, 0.27% active; AID 2563, 2010;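 active means fall in fluorescence gain of 50% or more versus controls, with final raw signal at or below 3038400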;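 further: plate controls were neutral control wells for no effect and wells lacking membranes for full effect; tested at 10 µM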
Target sequence (Q03530 whole entry, looked up): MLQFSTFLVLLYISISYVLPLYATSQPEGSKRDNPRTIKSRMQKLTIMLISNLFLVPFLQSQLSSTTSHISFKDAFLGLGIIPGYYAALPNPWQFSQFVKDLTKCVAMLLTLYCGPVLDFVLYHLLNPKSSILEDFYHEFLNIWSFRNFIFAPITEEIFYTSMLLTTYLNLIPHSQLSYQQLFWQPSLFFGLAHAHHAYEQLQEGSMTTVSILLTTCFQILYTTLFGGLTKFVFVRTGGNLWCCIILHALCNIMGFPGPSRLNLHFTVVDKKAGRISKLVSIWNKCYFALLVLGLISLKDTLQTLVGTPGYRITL
Yeast UUG start = modulators of yeast start codon fidelity, primary screen, whole organism, S. cerevisiae, single point, plate reader. S. cerevisiae UUG-firefly luciferase reporter, luminescence/redox ratio. activity score, % at 18.7 µM. 350,000 tested, 0.13% active. AID 602363, 2012;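 active means replicate mean at a twofold rise or more, about +100% in these data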;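 further: firefly luciferase made from a UUG start codon reports start codon fidelity; reporter light over untreated wells divided by growth signal over untreated wells; some hits fall short of that in this replicate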
CSC inhib = cancer stem cell viability inhibitors, primary screen, luminescence | cancer stem cell-like cells viability | inhibition, % at 7.5 µM | 300,000 tested, 1.1% active | AID 2717, 2010;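 active means mean at 75% or more and at least half the replicates too; tested in HMLE shEcad cells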;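 further: 0% = median of negative and 100% = median of positive control wells; the first replicate is given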
PABP FP inh = PABP poly(A) RNA binding inhibitors, primary screen, biochemical, fluorescence polarization, uHTS | Polyadenylate-binding protein 1 (Homo sapiens), P11940 | inhibition, % at 35 µM | 290,000 tested, 1% active | AID 2014, 2009;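 active means 50% or more with normal probe brightness, or confirmed in later tests; about a fifth of its hits are not listed in these tables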;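 further: calls also rest on retests at 20 µM and on dose response follow-up; controls were probe without protein and protein plus probe with vehicle; some compounds called inactive have numbers as strong as hits; many hits fall short of the cut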
Target sequence (P11940 whole entry, looked up): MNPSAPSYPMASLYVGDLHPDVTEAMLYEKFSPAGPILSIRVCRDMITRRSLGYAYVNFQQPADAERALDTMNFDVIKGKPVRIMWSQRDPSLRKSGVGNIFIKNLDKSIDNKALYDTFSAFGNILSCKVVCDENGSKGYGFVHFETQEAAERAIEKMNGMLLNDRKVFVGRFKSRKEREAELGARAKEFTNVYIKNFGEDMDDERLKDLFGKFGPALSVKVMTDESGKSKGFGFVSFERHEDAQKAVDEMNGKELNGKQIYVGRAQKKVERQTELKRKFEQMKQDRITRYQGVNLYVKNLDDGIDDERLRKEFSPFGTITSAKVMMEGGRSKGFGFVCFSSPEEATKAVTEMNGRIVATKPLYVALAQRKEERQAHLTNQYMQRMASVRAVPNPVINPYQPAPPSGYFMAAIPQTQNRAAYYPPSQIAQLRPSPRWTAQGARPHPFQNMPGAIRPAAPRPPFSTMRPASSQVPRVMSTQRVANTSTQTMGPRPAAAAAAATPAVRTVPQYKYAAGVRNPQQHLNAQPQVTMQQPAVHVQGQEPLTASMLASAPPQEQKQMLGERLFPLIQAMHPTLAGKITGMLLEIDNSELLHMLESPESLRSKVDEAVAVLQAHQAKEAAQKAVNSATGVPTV
Env fusion inh = inhibitors of HIV-1 Env-driven cell-cell fusion, primary screen, HeLa-JRFL effector, CEM21 target cells, luciferase; inhibition, % at 12.3 µM; 360,000 tested, 1.1% active;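 active means mean replicate inhibition score of at least 50 and every replicate individually at or above 50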;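 further: 0% = plate neutral controls and 100% = maraviroc near 300 nM; one replicate is shown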
eIF4H FP inh retest = also measured in eIF4H FP inh; calls as there; inhibition, %; compound at 20 µM; confirmation average;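 mean of two retest wells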
PABP FP inh retest = recorded beside PABP FP inh, whose call it bears; inhibition, %; compound at 20 µM; confirmation repeats;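 mean of two retest wells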
MT1-MMP act inh RFP = second read-out of MT1-MMP act inh, no call of its own (marks repeat the call); RFP signal change, %; measured here: RFP expression control read;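 0 = vehicle wells; hits needed this value within 50% of zero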
* marks the source's active call; other numbers are inactive results; i = inactive; / = not tested or not shown.

SMILES | MT1-MMP act inh | MT1-MMP act inh RFP | eIF4H FP inh | Rce1 inh | Yeast UUG start | CSC inhib | PABP FP inh | Env fusion inh | others
O=C(Nc1ccccc1Cl)NC1CCCCCCC1 | -8 | -3 | 0 | i | -1 | -3 | 8 | -21
CCOc1ccc(-n2ccnc(SCC(=O)Nc3cccc(OC)c3)c2=O)cc1 | -2 | -2 | / | i | -11 | 6 | / | -8
NC(=O)c1cc2ccc(O)cc2oc1=Nc1ccccc1 | -17 | -11 | -1 | i | -15 | / | 12 | /
O=C(CCc1c[nH]c2ccccc12)NCCc1ccc(Cl)cc1 | 4 | 0 | 4 | i | -20 | / | 2 | -8
Cc1ccc(S(=O)(=O)N2CCCCC2)cc1NC(=O)COc1ccccc1 | 11 | -2 | / | / | -11 | / | / | -6
CC(C)(C)C1CCC(=NNC(=O)C(=O)NC2CCCCC2)CC1 (configuration not stated) | -3 | 0 | -4 | i | -20 | -6 | -4 | -10
Cc1ccc(-n2nc(C)c3c(C)c(CCC(=O)NCc4ccccc4)c(C)nc32)cc1 | 0 | -4 | -6 | i | -15 | -4 | -6 | 45
CS(=O)(=O)Nc1cccc(NC(=O)C2Cc3c(-c4ccccc4)ccnc3O2)c1 (configuration not stated) | -9 | -10 | / | / | 16 | / | / | -24
COc1ccc2c(c1)O[C@@H](c1cccc(C(F)(F)F)c1)[C@H](OC(=O)NCCc1ccc(OC)c(OC)c1)C2=O | / | / | 9 | i | / | -4 | 28 | /
CN(c1ccccc1)S(=O)(=O)c1ccc(NC(=S)NC(=O)c2ccccc2)cc1 | 0 | -1 | -10 | i | -23 | 7 | 9 | /

Continued, starting with the last 5 of the part before.
SMILES | MT1-MMP act inh | MT1-MMP act inh RFP | eIF4H FP inh | Rce1 inh | Yeast UUG start | CSC inhib | PABP FP inh | Env fusion inh | others
CC(C)(C)C1CCC(=NNC(=O)C(=O)NC2CCCCC2)CC1 (configuration not stated) | -3 | 0 | -4 | i | -20 | -6 | -4 | -10
Cc1ccc(-n2nc(C)c3c(C)c(CCC(=O)NCc4ccccc4)c(C)nc32)cc1 | 0 | -4 | -6 | i | -15 | -4 | -6 | 45
CS(=O)(=O)Nc1cccc(NC(=O)C2Cc3c(-c4ccccc4)ccnc3O2)c1 (configuration not stated) | -9 | -10 | / | / | 16 | / | / | -24
COc1ccc2c(c1)O[C@@H](c1cccc(C(F)(F)F)c1)[C@H](OC(=O)NCCc1ccc(OC)c(OC)c1)C2=O | / | / | 9 | i | / | -4 | 28 | /
CN(c1ccccc1)S(=O)(=O)c1ccc(NC(=S)NC(=O)c2ccccc2)cc1 | 0 | -1 | -10 | i | -23 | 7 | 9 | /
O=c1nccc(NCc2ccco2)[nH]1 | 2 | 0 | -1 | i | -18 | -7 | -3 | 28
COc1ccc(-c2nn(-c3ccccc3)cc2/C=N/Nc2ccc(S(N)(=O)=O)cc2[N+](=O)[O-])cc1OC | 15 | 0 | -2 | i | / | -3 | 1 | -22
O=C(COc1ncnc2scc(-c3ccc(Cl)cc3)c12)NCc1ccco1 | -5 | -4 | 19 | i | -21 | -11 | 5 | /
CC1CCN(C(=O)Cn2c(=O)c3cccn3c3ccccc32)CC1 | 4 | 1 | -11 | i | -5 | 0 | 0 | 0
Cc1nc2ncnn2c(C)c1CCC(=O)N1CCCCC1 | 2 | 4 | -8 | i | / | -16 | -5 | -38
COc1ccc(NC(=O)COC(=O)C2CCCCC2)c([N+](=O)[O-])c1 | 10 | 6 | 9 | i | -20 | -8 | -12 | -31
Cc1ccnc(NS(=O)(=O)c2ccccc2)n1 | 1 | 5 | -4 | i | -21 | / | 2 | /
CC(C)C(C(=O)N1CCN(Cc2ccccc2)CC1)c1ccccc1 (configuration not stated) | -5 | -4 | -1 | i | -15 | / | 11 | 10
CC(C)[C@H]1COCCS(=O)(=O)N1Cc1ccccc1-c1cccc2c1oc1ccccc12 | -8 | -9 | / | / | 5 | / | / | -4
Cc1cccc(NC(=S)NNc2ncc(C(F)(F)F)cc2Cl)c1 | 2 | -8 | 8 | i | / | -18 | -16 | /
Cc1ccccc1NC(=O)CCc1nnc2ccc(N3CCC4(CC3)OCCO4)nn12 | -2 | 3 | / | i | -8 | 6 | / | 4
COCC(=O)Nc1ccc2nc3n(c(=O)c2c1)CCCCC3 | 1 | 6 | -7 | i | -10 | / | 2 | -15
CCOc1ccc(N2CC(C(=O)N3CCCC3)CC2=O)cc1 (configuration not stated) | 2 | 1 | 6 | / | -15 | -11 | 12 | 1
CCn1cc(Br)c(C(=O)N2CCN(c3ccccc3)CC2)n1 | 4 | 2 | 5 | i | -15 | -7 | 8 | /
CC(C)N1C(=O)/C(=C\c2nc3ccccc3c(=O)n2-c2ccccc2)c2ccccc21 | -2 | -18 | -9 | i | 18 | 75* | 2 | -14
COc1ccc(/C=N\NC(=O)c2cccc(F)c2)cc1COc1ccccc1 | 18 | -2 | / | i | / | 60 | / | -163
Cc1nc2ccc(NC(=O)c3cccc(S(=O)(=O)N(C)c4ccccc4)c3)cc2s1 | -9 | -27 | -9 | i | -7 | 2 | -15 | /
CCCCCOc1ccc(NC2=CC(=O)CCC2)cc1 | -3 | -6 | 87 | i | -7 | -4 | 3 | 6 | eIF4H FP inh retest=-8;PABP FP inh retest=12
O=C(NCCc1c[nH]c2ccccc12)c1ccc(Cl)cc1 | 0 | -2 | 2 | i | -22 | 24 | -5 | -78
Cc1ccc2nsnc2c1S(=O)(=O)Nc1cccc2nsnc12 | 3 | 7 | -4 | i | -12 | -2 | 6 | /

The list goes on, starting with the last three of the part before.
SMILES | MT1-MMP act inh | MT1-MMP act inh RFP | eIF4H FP inh | Rce1 inh | Yeast UUG start | CSC inhib | PABP FP inh | Env fusion inh | others
CCCCCOc1ccc(NC2=CC(=O)CCC2)cc1 | -3 | -6 | 87 | i | -7 | -4 | 3 | 6 | eIF4H FP inh retest=-8;PABP FP inh retest=12
O=C(NCCc1c[nH]c2ccccc12)c1ccc(Cl)cc1 | 0 | -2 | 2 | i | -22 | 24 | -5 | -78
Cc1ccc2nsnc2c1S(=O)(=O)Nc1cccc2nsnc12 | 3 | 7 | -4 | i | -12 | -2 | 6 | /
Cc1cccc2cc(CN(Cc3ccccc3)C(=O)c3cccc(F)c3)c(Cl)nc12 | -12 | -9 | -8 | i | 0 | 18 | 9 | 25
CCC(C)C(=O)Nc1cc([N+](=O)[O-])ccc1Cl (configuration not stated) | 1 | 1 | -5 | i | / | -17 | -4 | -3
O=C(CNC(=O)c1cccs1)N=Nc1c(O)[nH]c2ccc(Br)cc12 | 2 | 0 | 2 | i | / | -6 | -4 | 6
CCCCNC(=O)/C=C/c1ccc(S(=O)(=O)Nc2ccc(OC)cc2)cc1 | 4 | 0 | 14 | i | 18 | -5 | -11 | 2
O=C(Nc1cc(C(F)(F)F)ccc1F)C1CCC1 | 4 | 4 | 0 | i | -1 | -4 | 2 | /
CCOC(=O)Cn1c(CN(Cc2ccccc2)Cc2ccccc2)nc2c1c(=O)n(C)c(=O)n2C | -8 | -8 | -4 | i | 20 | -7 | -8 | -173
O=C(c1cccc(S(=O)(=O)N2CCCC2)c1)c1nnc(-c2ccncc2)o1 | 6 | -4 | -3 | i | -6 | / | 7 | 18
CC(C)c1ccc(C2(C)NC(=O)N(C(C)C(=O)Nc3ccc(N4CCOCC4)cc3)C2=O)cc1 (configuration not stated) | 11 | -3 | / | / | 4 | / | / | -11
CCN(CC)S(=O)(=O)c1ccc(NC=C(C#N)C#N)cc1 | -5 | -3 | -3 | i | 1 | -11 | -3 | -11
O=C(CNC(c1ccccc1)c1ccccc1)Nc1ccccc1Br | 2 | -3 | 6 | i | -6 | 19 | -1 | 18
Cc1n[nH]c(=S)n1-c1ccc(Cl)cc1 | 3 | 3 | 3 | i | / | 4 | -6 | -2
Cc1ccc([N+](=O)[O-])c(OCCN2C(=O)NC(C)(C)C2=O)c1 | 3 | 2 | 10 | i | / | -9 | -13 | 10
CCC(=NCCc1c(C)[nH]c2ccccc12)C1=C(O)CC(c2ccccc2)CC1=O (configuration not stated) | -14 | -22 | 3 | i | -8 | 65 | -14 | 29
CC(C)(C)OC(=O)[C@H](Cc1ccccc1)NC(=O)c1nc[nH]c1C(=O)N1CCN(C(=O)OC(C)(C)C)CC1 | 8 | 4 | -6 | i | -1 | 18 | -2 | -13
COc1ccc(/C=N/OCC(=O)N2CCCC2)c(OC)c1 | -2 | 3 | 1 | i | / | 13 | -5 | 0
CCOC(=O)N1CCN(C(=S)Nc2ccc(C)cc2C)CC1 | -2 | 5 | 4 | i | / | -16 | 8 | 7
Cc1c(CCCN)c2ccccc2n1Cc1ccccc1 | -16 | -8 | 0 | i | -5 | 5 | 5 | 20
C=CCc1cc(C=Nc2ccc(N3CCOCC3)cc2)cc(OCC)c1O | 1 | 1 | / | / | -9 | / | / | 8
CCN(Cc1ccccc1)C(=O)CN1C(=O)COc2ccc(S(=O)(=O)NC3CCCC3)cc21 | -1 | 2 | -6 | i | -5 | -17 | -3 | 5
Oc1c(Br)cc(Br)cc1/C=N/n1c(-c2ccccc2)n[nH]c1=S | -3 | 2 | 1 | i | -23 | 1 | 14 | 14
Cc1nc2c(sc(=S)n2Cc2ccco2)c(=O)n1CC(=O)Nc1ccc(F)cc1 | 6 | -3 | 2 | i | -9 | 0 | -2 | 8
CN(C)c1ccc(C=C2C=CC=C2)cc1 | 4 | 10 | / | / | -12 | / | / | -72
O=C(CSc1nc2ncc(Br)cc2[nH]1)c1cccc([N+](=O)[O-])c1 | -5 | -3 | 2 | i | / | 5 | 0 | -15
C/C(=N\NC(=O)COc1ccccc1[N+](=O)[O-])c1cccs1 | 0 | 1 | -4 | i | -11 | 4 | -8 | -19
O=C(N/N=C/c1cc(Cl)cc([N+](=O)[O-])c1O)c1ccccc1NS(=O)(=O)c1cccs1 | 0 | -2 | 34 | i | -14 | 12 | 18 | 10
Cc1oc(-c2ccc(Cl)cc2)nc1CS(=O)CC(=O)NCc1ccccn1 (configuration not stated) | -2 | 3 | -3 | i | -23 | -5 | -5 | 8
Cc1ccc(S(=O)(=O)N(CCCO)CC(O)CON=C2c3ccccc3-c3ccccc32)cc1 (configuration not stated) | -9 | -15 | 0 | i | / | 35 | -8 | /
CC1=C(C)CC(C(=O)NNC(=O)c2csc3c2CCC(C(C)(C)C)C3)C(C(=O)O)C1 (configuration not stated) | 0 | -2 | -3 | i | -9 | 24 | 1 | /
CCCNC(=O)c1ccc2c(c1)nc(C)n2-c1cccc(C)c1 | -1 | -4 | 1 | i | -6 | 13 | -4 | -4
CC(=O)c1ccccc1NC(=O)c1ccc(OCc2c(C)noc2C)cc1 | 4 | -3 | / | / | -7 | 4 | / | -92
